# A488 autofl: compound fluoresces in the A488 spectral region; compound autofluorescence, A488 spectral region, dye equivalency; hits give high values; max dye equivalency, M; 59,000 tested, 0.1% active; active = above 10 nM dye equivalent; inconclusive = 1 to 10 nM; inactive = 1 nM or less; about half of its hits are not listed in these tables;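 further: highest value over a series up to 38 µM; compound alone in buffer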
#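 Intrinsic compound fluorescence is measured in 100 mM Tris buffer at pH 8.0 following 15 min incubation at room temperature. Intensities at 480 nm excitation/540 nm emission are calibrated to an on-plate A488 concentration series, giving dye-equivalent concentrations.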
# A647 fluor: compound fluoresces in the A647 spectral region. Compound fluorescence, A647 channel (570/671 nm), Tris buffer. max dye-equivalent concentration, M. 59,000 tested, under 10 active; active means above 1 µM dye equivalent; inconclusive means 0.1 to 1 µM; inactive means 0.1 µM or less;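 further: values scaled relative to a standard on each plate; highest value over a series up to 38 µM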
#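 Compound fluorescence was measured in 100 mM Tris buffer, pH 8.0, after 15 min at room temperature, using 570 nm excitation and 671 nm emission filters. Signal was normalized to a per-plate Alexa 647 standard curve and expressed as dye-equivalent concentration at each compound concentration.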
# AID923: qHTS Assay for Allosteric/Competitive Inhibitors of Caspase-1: Spectroscopic Profiling in AFC Spectral Region; compound fluorescence, AFC spectral region (405/520 nm); almost no hit is shown here; Potency, µM (top dose mostly 57.5 µM), without a hit: top-dose fluorescence increase, most hits filed as activators; 75,000 tested, 1.1% active; AID 923, 2007; active means well fitted activation curve with a large enough effect; inconclusive means small, poorly fitted or top-dose-only effect;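 further: potency means the concentration at half of the fitted maximal effect; 0% is about no effect; scaled to a free AFC standard on each plate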
#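 Compound autofluorescence profiled at 405 nm ex/520 nm em during kinetic caspase 1 run (50 nM enzyme, 5 uM Ac-WEHD-AFC, HEPES pH 7.5, 10 mM DTT). Titration up to 57 uM; baseline from regression intercept, normalized to AFC standard curve.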
# Resorufin fluor: compounds fluorescent in resorufin spectral region | max dye-equivalent concentration, M | 59,000 tested, 0.04% active | Compound fluorescence, resorufin region 547/598 nm, buffer; hits give high values | AID 588; active = above 10 nM dye equivalent; inconclusive = 1 to 10 nM; inactive = 1 nM or less; a few of its hits are not listed in these tables; further: highest value over a series up to 38 µM
#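 Tris 100 mM pH 8.0; compound added, 15 min RT; CCD imager read, ex 547 nm/em 598 nm; signal normalized to resorufin standard curve (six concentrations per plate) as dye-equivalent concentration.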
# TSHR ag: agonists of human thyroid stimulating hormone receptor; 73,000 tested, 0.48% active; HEK293-CNG-TSHR cells (CNG channel as cAMP sensor), membrane potential dye, cAMP; Potency, µM (titrated, usually from 57.1 µM), without a hit: at the highest dose activation, usual class: activators; AID 926; P16473; active = well fitted activation curve of enough size with the parental cells flat; inconclusive = any curve in the parental cells; inactive = parental cells flat and receptor cells flat or falling; further: potency means the concentration at half of the fitted maximal effect; % of control where 0% means no effect; weak receptor curves with flat parental cells got no call and are not listed
# Target sequence (P16473 whole entry, looked up): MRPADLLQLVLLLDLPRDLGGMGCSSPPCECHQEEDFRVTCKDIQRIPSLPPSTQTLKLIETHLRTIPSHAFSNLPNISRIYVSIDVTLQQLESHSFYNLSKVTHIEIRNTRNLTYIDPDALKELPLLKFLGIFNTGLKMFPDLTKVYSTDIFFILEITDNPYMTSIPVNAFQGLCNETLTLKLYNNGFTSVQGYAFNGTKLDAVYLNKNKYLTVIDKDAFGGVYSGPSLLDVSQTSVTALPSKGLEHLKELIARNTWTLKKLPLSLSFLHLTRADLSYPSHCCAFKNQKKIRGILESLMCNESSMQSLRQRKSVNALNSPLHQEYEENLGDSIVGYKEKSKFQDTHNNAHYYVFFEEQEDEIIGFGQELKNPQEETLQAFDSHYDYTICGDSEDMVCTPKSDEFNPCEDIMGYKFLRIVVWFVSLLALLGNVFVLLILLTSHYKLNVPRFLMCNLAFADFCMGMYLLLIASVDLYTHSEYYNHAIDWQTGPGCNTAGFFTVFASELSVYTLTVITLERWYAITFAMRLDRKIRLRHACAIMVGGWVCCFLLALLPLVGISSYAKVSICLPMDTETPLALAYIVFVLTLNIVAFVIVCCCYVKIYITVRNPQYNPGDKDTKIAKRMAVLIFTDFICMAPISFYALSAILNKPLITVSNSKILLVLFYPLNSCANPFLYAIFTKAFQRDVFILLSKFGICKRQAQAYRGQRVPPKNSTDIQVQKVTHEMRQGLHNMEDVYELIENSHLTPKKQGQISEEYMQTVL
#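 HEK 293 cells stably expressing TSHR and a modified CNG channel, with CNG-only parental cells as counterscreen, were preloaded 60 min at room temperature with membrane potential dye containing 100 uM RO 20-1724. Compound exposure was 30 min, and depolarization was read as fluorescence at 590 nm.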
# The depositor's hits bear a star; i = inactive; u = inconclusive; x = no result given; & = joins results of further samples; [ ] = another dose, or the depositor's remark. Only part of the results is shown; count on the stated rates, not on these rows.
SMILES,A488 autofl,A647 fluor,AID923,Resorufin fluor,TSHR ag
Nc1cc(=O)[nH]c(SCc2nnc(-c3ccccc3)o2)n1,i,3.1e-08,0.6%,i,4%
Cc1ccc(S(=O)(=O)/C(C#N)=C/c2c(N3CCN(C)CC3)nc3c(C)cccn3c2=O)cc1,i,9.7e-09,x,i,x
CN(Cc1cccc(F)c1)C(=O)c1ccc(S(=O)(=O)C(F)F)cc1,i,7.4e-09,1.4%,i,9%[11.4 µM]
CCOC(=O)CSc1nc2ccsc2c(=O)n1C1CCN(C(=O)OCC)CC1,i,2.2e-08,0.2%,i,u
Cc1ccc(C(C(=O)NCc2ccco2)N(C(=O)Cn2nnc3ccccc32)c2ccccc2)o1 (stereo not drawn),i,1.5e-08,0.2%,i,20%
CCCCCCn1c(=O)c(-c2nc3ccccc3c(=O)[nH]2)c(O)c2ccccc21,i,4.3e-09,0.2%,i,5%
CC(NC(=O)c1nn(C)c(=O)c2ccccc12)c1ccccc1 (stereo not drawn),i,3.4e-08,1.3%,i,21%
CNCCCCOc1ccccc1Cc1ccccc1,x,x,-1.6%,x,u
CC(=O)c1c(C)[nH]c(C(=O)OC2CCCCC2=O)c1C (stereo not drawn),i,7.7e-09,-2.0%,i,3%
COc1ccc(-c2nnc(SC(C)C(=O)Nc3cccc(Cl)c3)o2)cc1 (stereo not drawn),i,1e-09,-1.4%,i,13%
COCCCNS(=O)(=O)c1ccccc1,x,x,-3.4%,x,-2%[11.4 µM]
CC1(C)CC(=O)C2=C(C1)NC(Nc1nc3ccccc3o1)=NC21CCCCC1,i,8.3e-09,0.8%,i,-2%
O=C1CCC/C1=c1\s/c(=C\c2cccnc2)c(=O)n1-c1ccccc1,i,4.8e-09,3.5%,i,0%
Cc1ccc(Cn2c(CN3CCOCC3)nc3c2c(=O)n(C)c(=O)n3C)cc1,i,2.6e-08,-0.6%,i,11%
O=C(O)Cn1c(-c2cscn2)nc2ccccc21,i,1.8e-08,-0.5%,i,-1%
COc1cc(C)c(S(=O)(=O)N2CCOCC2)cc1C(C)C,i,1e-09,0.0%,i,14%
CCCCOc1cc(C[C@@H]2CNC(=O)N2)ccc1OC,i,1e-09,1.3%,i,4%&-19%
CSc1ccc(NC(=O)Nc2cc(C)ccn2)cc1,i,9.7e-09,2.6%[11.5 µM],i,-1%[11.4 µM]
Cc1cc2oc(C(=O)NC3CCS(=O)(=O)C3)c(C)c2cc1C (stereo not drawn),i,1.6e-08,0.2%,i,x
Cc1nn(Cc2ccccc2Cl)c(C)c1NC(=O)C1C2CCC(O2)C1C(=O)O (stereo not drawn),i,1e-09,0.7%,i,x
O=C(NCc1ccc(F)cc1)c1cc(-c2ccco2)on1,i,1e-09,-1.1%,i,8%
CCc1nc(SCC(=O)Nc2nccs2)c2oc3ccccc3c2n1,i,1.8e-08,-0.5%,i,-3%
OCCN1CCN(CCCN2c3ccccc3Sc3ccc(C(F)(F)F)cc32)CC1,i,2.2e-08&4.2e-08&1.1e-09,-1.5%,i,-10%[25.6 µM]
C=CCn1c(N2CCCCCC2)nc2c1c(=O)[nH]c(=O)n2C,i,1.1e-08,-0.1%,i,3%
CCCCNC(=O)CSc1nnc(-c2ccco2)n1C,i,1e-09,0.1%,i,0%
CN(CC(=O)NCCCN1CCOCC1)S(=O)(=O)c1ccc(Br)cc1,i,8.3e-09,-0.8%,i,4%
O=S(=O)(N1CCCCC1)n1nnc2ccccc21,i,2.5e-08,-2.2%,i,12%
Cn1nccc1/C=C(/C#N)S(=O)(=O)c1ccccc1,i,2.8e-08,-0.5%,i,-4%
CCCCOC(=O)Nc1ccc(S(=O)(=O)Nn2cnnc2)cc1,x,x,0.5%,x,0%
CCc1cc2cccc(C)c2nc1SCC(=O)N1CCN(C(=O)c2ccco2)CC1,i,3e-08,0.6%,i,u
COc1cc(OC)c(NC(=O)c2ccc(Br)o2)cc1Cl,x,x,-1.5%,x,21%[11.4 µM]
O=C1c2cccnc2C(=O)N1Cc1ccc(F)cc1,u,1e-09,2.7%,i,-1%
O=C(NCc1nc2ccccc2[nH]1)c1cccs1,x,x,3.2%,x,u
CC(=O)OCC(OC(C)=O)C(OC(C)=O)C(OC(C)=O)C(=O)Nc1ccc(C)cc1C (stereo not drawn),i,7.5e-09,0.0%,i,3%
Cc1nnc2n1NC(c1ccc(Cl)cc1)C(C(=O)N1CCC(C)CC1)S2 (stereo not drawn),i,1.9e-09,-0.9%,i,2%
O=C(/C=C/c1ccccc1)c1ccccc1,i,1.4e-09,x,i,x
CCn1c(Cc2ccccc2)nnc1SCC(=O)OC(C)C,i,1.9e-09,-0.3%,i,-1%
Cc1cc(O)ccc1Nc1nc2ccccc2nc1Nc1ccc(O)cc1C,x,x,9.7%,x,17%
Clc1ccc(CN2C3=NCCN3c3ccccc32)cc1,i,1e-09,-2.1%,i,u
CSc1ncc(Cl)c(C(=O)Nc2ccc(S(=O)(=O)N3CCOCC3)cc2)n1,i,1.3e-08,4.1%,i,-1%

# Sorted by molecular weight (descending): 5 of the compounds above
SMILES,A488 autofl,A647 fluor,AID923,Resorufin fluor,TSHR ag
Cc1ccc(S(=O)(=O)/C(C#N)=C/c2c(N3CCN(C)CC3)nc3c(C)cccn3c2=O)cc1,i,9.7e-09,x,i,x
Cc1nnc2n1NC(c1ccc(Cl)cc1)C(C(=O)N1CCC(C)CC1)S2 (stereo not drawn),i,1.9e-09,-0.9%,i,2%
COc1ccc(-c2nnc(SC(C)C(=O)Nc3cccc(Cl)c3)o2)cc1 (stereo not drawn),i,1e-09,-1.4%,i,13%
COc1cc(OC)c(NC(=O)c2ccc(Br)o2)cc1Cl,x,x,-1.5%,x,21%[11.4 µM]
O=C1c2cccnc2C(=O)N1Cc1ccc(F)cc1,u,1e-09,2.7%,i,-1%

# New compounds follow:
SMILES,A488 autofl,A647 fluor,AID923,Resorufin fluor,TSHR ag
COc1ccc2[nH]c3c(=O)n(CCCCC(=O)N4CCC(C(N)=O)CC4)c(=S)[nH]c3c2c1,i,1e-09,1.0%,i,4%
N[C@H](Cc1ccc(F)cc1)C(=O)O,i,9.6e-09,1.3%,i,8%
O=c1c(-c2cc(F)cc(F)c2)nc2cncnc2n1Cc1ccccc1,i,2.9e-08,5.8%,i,-2%
O=c1c(C/C=C/c2ccccc2)c(O)nc2n1CCCS2,i,1e-09,0.4%,i,7%
CCOC(=O)COc1cccc2c(=O)n(CC(=O)N3CCN(C(=O)OCC)CC3)ccc12,x,x,2.5%,x,9%
CCOc1ccccc1C(=O)NC(C(=O)Nc1ccccc1N1CCOCC1)C(C)C (stereo not drawn),i,2.7e-08,-0.2%,i,12%
CCOC(=O)C(C(=O)OCC)C1N=C(N)N=C2Oc3ccccc3N21 (stereo not drawn),i,3.2e-08,0.8%,i,1%
CN(C)/N=N/c1nc[nH]c1C(N)=O,x,x,-3.3%,x,u
COCCN(CC(=O)Nc1ccc(F)cc1)S(=O)(=O)c1ccc(S(=O)(=O)N2CCCC2)cc1,i,4.8e-08,0.5%,i,-4%
CC(C)OC(=O)c1cccc(C(=O)OCc2ccco2)n1,i,1e-09,-0.4%,i,-3%
CCC(=O)NCCCCNC(=O)CC,i,7e-09,0.7%,i,1%
COc1cc(S(=O)(=O)N2CCC(O)(c3cccc(C(F)(F)F)c3)CC2)ccc1-n1cnnn1,i,1e-09,-0.1%,i,-3%
COc1ccc(C(C)=O)cc1CSc1nnc(C)s1,x,x,1.2%,x,12%
COc1ccc(N(CC(=O)Nc2ccc(C)cn2)S(=O)(=O)c2c(C)noc2C)cc1,i,9.5e-09,-1.4%,i,u
COc1ccc(CCC(=O)N2c3ccccc3CC2C)cc1 (stereo not drawn),i,2.8e-09,-1.5%,i,5%
CC(=O)[C@@]1(O)CC[C@H]2[C@@H]3CCC4=CC(=O)CC[C@]4(C)[C@H]3[C@@H](O)C[C@@]21C,i,9.2e-09,x,i,x
CCCCn1c2c(c(=N)c3c1CCC3)CCC2,i,3.9e-09,4.3%,i,15%
CCOc1ccc(-c2nn3c(-c4ccc(F)cc4)nnc3s2)cc1,i,2e-08,-1.0%,i,x
C=C(C)C(=O)OCCCCCCCCCC,x,x,3.3%,x,u
O=C(CCC(=O)N1CCN(C2CCCC2)CC1)Nc1nnc(C(F)(F)F)s1,i,3.1e-08,-0.7%,i,1%
O=C(CSc1nc2ccccc2c2ccccc12)c1ccccc1,i,1e-09,5.5%[11.5 µM],i,1%[11.4 µM]
c1coc(-c2nnc3sc(C4CCCCC4)nn23)c1,i,2.8e-09,x,i,x
c1cncc(-c2nc(N3CCCCCC3)c3ccccc3n2)c1,i,4.2e-08,4.1%,i,u
CCCOc1ccc(N2C(=O)CC(N3CCN(C(=O)c4ccco4)CC3)C2=O)cc1 (stereo not drawn),x,x,1.0%,x,0%
COC(=O)[C@H](C)NC(=O)NC1CCCc2ccccc21 (stereo partly drawn),i,8.8e-09,0.2%,i,5%
CC1CN(C(=O)c2ccccc2C(=O)c2ncc[nH]2)CC(C)O1 (stereo not drawn),i,1e-09,-0.3%,i,0%
Nc1nc2n(n1)C(c1ccco1)CC(c1ccc(Cl)cc1)N2 (stereo not drawn),i,5.4e-09,0.3%,i,-7%
CC(C)(C)OC=O,x,x,2.5%,x,-6%
CN(c1ccccc1C(=O)Nc1ccc2c(c1)OCO2)S(C)(=O)=O,i,1e-09,1.5%,i,-18%
O=C(NC1CCCCC1)N1CCN(C2CCCCC2)CC1,i,2.7e-08,4.8%,i,19%

# Structures above with a CF3 group (3):
SMILES,A488 autofl,A647 fluor,AID923,Resorufin fluor,TSHR ag
OCCN1CCN(CCCN2c3ccccc3Sc3ccc(C(F)(F)F)cc32)CC1,i,2.2e-08&4.2e-08&1.1e-09,-1.5%,i,-10%[25.6 µM]
COc1cc(S(=O)(=O)N2CCC(O)(c3cccc(C(F)(F)F)c3)CC2)ccc1-n1cnnn1,i,1e-09,-0.1%,i,-3%
O=C(CCC(=O)N1CCN(C2CCCC2)CC1)Nc1nnc(C(F)(F)F)s1,i,3.1e-08,-0.7%,i,1%

# Next part
SMILES,A488 autofl,A647 fluor,AID923,Resorufin fluor,TSHR ag
Nc1nnc(SCC(=O)Nc2ccc(F)c(Cl)c2)n1-c1ccccc1,i,9.8e-09,2.7%,i,10%
CCOC(=O)N1CCN(C(=O)Cn2nc(C)c3sc4ccccc4c3c2=O)CC1,i,1e-09,0.8%,i,-10%
O=C1c2ccccc2C(=O)N1OCc1ccccc1,i,3.8e-08,1.4%,i,11%
COc1cc(C2c3sc(=O)[nH]c3SC3C4CCC(C4)C23)ccc1O (stereo not drawn),i,2.7e-09,-0.1%,i,1%
O=C(NCC(=O)N(Cc1ccco1)C(C(=O)NC1CCCCC1)c1cccnc1)c1ccco1 (stereo not drawn),i,1.5e-09,2.8%,i,4%
Cc1nnc2ccc(N3CCC(C(N)=O)(N4CCCCC4)CC3)nn12,x,x,-0.3%,x,-2%
COc1ccc(OCC(O)CN2CCCCC2)cc1 (stereo not drawn),x,x,-1.6%,x,7%
CCOCCOC(=O)c1[nH]c2c(c1C)C(=O)CC(c1ccc(N(C)C)cc1)C2 (stereo not drawn),x,x,0.3%,x,11%
CCN(CC)c1ccc2c(C)cc(=O)oc2c1,x,x,13µM*,x,4%
COc1ccccc1CNc1ncnc2ccc(-c3ccccc3CN(C)C)cc12,i,1.9e-09,-0.2%,i,0%
Cc1ccccc1-n1nc(C)c2cc(C(=O)N3CCOCC3)sc21,i,1.1e-08,-0.7%,i,u
O=C1CCCC2=C1C1(CCCCC1)N=C(Nc1nc3ccccc3s1)N2,i,1e-09,-0.9%,i,7%
CC1Cc2ccccc2N1C(=O)CN1CCc2ccccc2C1 (stereo not drawn),i,5.2e-09,0.2%,i,9%
Cc1ccc(S(=O)(=O)N2CCN(C(=O)CCC(=O)OCC(=O)Nc3cccc(C#N)c3)CC2)cc1,i,3e-08,0.3%,i,1%
